SARS PLP yeast: qHTS of Yeast-based Assay for SARS-CoV PLP; S. cerevisiae expressing SARS-CoV PLpro, growth rescue; control for the full effect not named in the record; Potency, µM (top dose mostly 32.9 µM), inactives show top-dose activity, positive = growth rescue; 330,000 tested, 0.19% active; active means well fitted rising curve with a large enough effect; inconclusive means small, poorly fitted or top-dose-only effect; inactive means no such curve, though single readings can be large or run the other way; further: 0% is about no effect; nearly all actives have a fitted effect of over 55% in size; growth read by luminescence after 48 h
Cruzain Triton: qHTS Assay for Promiscuous and Specific Inhibitors of Cruzain (with detergent) | Potency, µM, without a hit: max response, negative = inhibition, actives largely listed as inhibitors | Cruzipain (Trypanosoma cruzi), P25779 | AID 1478, 2009 | purified cruzain, Z-FR-AMC fluorescence, 0.01% Triton | 200,000 tested, 0.43% active;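 further: plate controls were neutral wells for no effect and buffer without enzyme for full effect; nearly all actives have a fitted effect of over 40% in size; top concentration of the series not given in the record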
Target sequence (P25779 123-467 limits assumed): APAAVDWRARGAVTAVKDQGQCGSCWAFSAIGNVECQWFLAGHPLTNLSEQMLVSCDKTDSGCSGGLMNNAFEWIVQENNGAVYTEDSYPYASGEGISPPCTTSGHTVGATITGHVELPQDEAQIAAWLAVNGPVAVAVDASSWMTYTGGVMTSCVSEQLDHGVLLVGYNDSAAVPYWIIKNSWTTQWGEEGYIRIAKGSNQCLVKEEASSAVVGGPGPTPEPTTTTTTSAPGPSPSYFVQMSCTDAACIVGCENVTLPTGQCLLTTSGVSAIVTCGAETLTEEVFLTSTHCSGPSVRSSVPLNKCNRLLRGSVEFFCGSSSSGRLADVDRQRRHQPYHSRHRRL
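Steps: dispense cruzain (1.5 nM final) in acetate buffer pH 5.5 with DTT and 0.01% Triton X-100; pin-transfer compounds; incubate 15 min RT; add Z-FR-AMC (2 uM final); read fluorescence every 30 s, using the 60 s intensity change.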
RE007 growth inh: qHTS Assay for Inhibitors of the HIV-1 protein Vpr; Potency, µM (series often up to 92.2 µM), without a hit: at the highest dose activity change, negative = less growth; 360,000 tested, 0.21% active; S. pombe RE007 Vpr strain, BacTiter-Glo ATP luminescence, 24 h; control for the full effect not named in the record; active = well fitted falling curve with a large enough effect; inconclusive = small, poorly fitted or top-dose-only effect; inactive = no such curve, though single readings can be large or run the other way;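 further: on the % scale 0 is the no-effect control and ±100 the full control effect; nearly all actives have a fitted effect of over 50% in size; the assay follows cell death caused by Vpr and the record does not say whether a fall means rescue or toxicity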
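Fission yeast RE007 carrying one integrated HIV-1 vpr copy, seeded at OD 0.01 in PMG+AL medium with 23 nL pinned compound. Grown 24 h at 30 degrees; viability read by BacTiter-Glo luminescence after 5 min.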
NS1 function inh: qHTS Assay for Inhibitors of Influenza NS1 Protein Function; S. cerevisiae slowed by influenza A NS1, growth recovery by OD600; Potency, µM (highest dose often 46.1 µM), for inactives: at the highest dose activity, positive = more growth; 270,000 tested, 0.4% active; AID 2326, 2010; active means well fitted rising curve with a large enough effect; inconclusive means small, poorly fitted or top-dose-only effect; inactive means no such curve, though single readings can be large or run the other way; further: nearly all actives have a fitted effect of over 50% in size
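OD600 was taken as the measure of yeast growth restored by compound in an NS1-expressing S. cerevisiae strain. Cells had been washed out of glucose medium and diluted 1:100 into galactose -URA medium, pH 6.0.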
StopGo reporter: High Throughput Screening for Foot and Mouth Disease Virus Antivirals; Potency, µM (highest dose often 57.9 µM), without a hit: top-dose signal change, negative = less light; human cells with a luciferase reporter of 2A StopGo recoding; control for the full effect not named in the record; 410,000 tested, 1.2% active; active = well fitted falling curve with a large enough effect; inconclusive = small, poorly fitted or top-dose-only effect; inactive = no such curve, though single readings can be large or run the other way; tested in HEK293T cells; further: on the % scale 0 is the no-effect control and ±100 the full control effect; nearly all actives have a fitted effect of over 45% in size; luciferase light after 4 h
LASV entry inh: qHTS for Inhibitors of binding or entry into cells for Lassa Virus. AID 540256, 2011. Lassa virus pseudotype entry inhibition, cell reporter; control for the full effect not named in the record. Potency, µM (doses to about 37.9 µM), for the others: at the top dose activity change, negative = inhibition, actives largely listed as inhibitors. 300,000 tested, 1.2% active; active means well fitted inhibition curve with a large enough effect; inconclusive means small, poorly fitted or top-dose-only effect, or effect the other way; inactive means flat fitted curve, though single readings scatter; tested in HEK293 cells; further: on the % scale 0 is the no-effect control and ±100 the full control effect; nearly all actives have a fitted effect of over 50% in size; luciferase read-out
Marburg entry inh: qHTS for inhibitors of binding or entry into cells for Marburg Virus; Marburg virus pseudotyped entry inhibition, cell reporter; control for the full effect not named in the record; about a third of the inactives were read at about 46 µM; 300,000 tested, 1.8% active; Potency, µM (highest dose often 37.8 µM), inactives show top-dose activity change, negative = inhibition, usual class: inhibitors; active = well fitted inhibition curve with a large enough effect; inconclusive = small, poorly fitted or top-dose-only effect, or effect the other way; inactive = flat fitted curve, though single readings scatter; tested in HEK293 cells; about a fifth of its hits are not listed in these tables; further: on the % scale 0 is the no-effect control and ±100 the full control effect; luciferase read-out
Cruzain noTriton: qHTS Assay for Promiscuous and Specific Inhibitors of Cruzain (without detergent); Cruzipain (Trypanosoma cruzi), P25779; purified cruzain, Z-FR-AMC fluorescence, no detergent; Potency, µM, for inactives: max response, negative = inhibition, usual class: inhibitors; 200,000 tested, 2.3% active; AID 1476, 2009;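 further: plate controls were enzyme without inhibitor for no effect and buffer without enzyme for full effect; nearly all actives have a fitted effect of over 40% in size; top concentration of the series not given in the record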
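Detergent-free condition (0.00005% Triton X-100) in acetate buffer pH 5.5 with DTT. 1.5 nM enzyme and compound were pre-mixed 15 min, then 2 uM Z-FR-AMC substrate added; reaction progress from fluorescence change between first and third reads (60 s).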
Starred values were filed as active, the others as inactive; ? = inconclusive; . = not tested or not shown; [ ] = another dose, or the depositor's remark. Unless noted, the call rests on the fitted dose curve; in most records, active means well fitted curve in the direction sought with a large enough effect; inconclusive means small, poorly fitted or top-dose-only effect, or another doubt; inactive means no such curve, though single readings can be large; an effect the other way counts as inactive or inconclusive. Potency means the concentration at half of the fitted maximal effect. This is a random part of the collection; about 4.8% have a hit in one of these screens.

SMILES	SARS PLP yeast	Cruzain Triton	RE007 growth inh	NS1 function inh	StopGo reporter	LASV entry inh	Marburg entry inh	Cruzain noTriton
CC(=O)OC(C(=O)NC1CCCCC1)c1cccc(C)c1 (stereo not given)	1%	1.2%	16%	11%	11%	-1%	7%	-10%
C=CCNC(=S)N/N=C(\C)c1cccc(NC(C)=O)c1	-3%	.	6%	4%	-5%	-4%	-24%	.
CCSc1nnc(NC(=O)Nc2cccc(C)c2)s1	-1%	.	-18%	-3%	2%	?	?	.
CC(C)Cn1c(N)c(C(=O)NCCN2CCOCC2)c2nc3ccccc3nc21	-1%	-3.9%	11%	-12%	-23%	?	?	?
CC(C)(C)n1ncc2c(=O)n(CC(=O)Nc3ccc(Cl)cc3)cnc21	3%	-4.7%	0%	-12%	?	-4%	2%	-7%
O=C(O)c1ccc2c(c1)N(Cc1ccccc1)C(=O)c1ccccc1S2	0%	.	35%	2%	18%	23%	19%[46.1 µM]	.
O=C(NCc1cccc(Cl)c1)c1ccc2c(c1)SC1=NS(=O)(=O)CCN12	0%	.	-11%	-4%	-11%	.	.	.
O=c1oc2ccccc2n1Cc1ccccc1	-1%	.	-2%	2%	-3%	15%[46.1 µM]	2%[46.1 µM]	.
CCC(=O)Nc1sc2c(c1C(=O)OC)CCN(Cc1ccccc1)C2	1%	.	-3%	-14%	-15%	.	.	.
CCN(CC)c1nc2c(c(=O)[nH]c(=O)n2C)n1Cc1ccccc1Cl	3%	.	7%	5%	-18%	.	.	.
Cc1cc(C(F)(F)F)nc(NCc2cccnc2)n1	1%	-2.6%	23%	-7%	-4%	15%	-5%	2%
COc1ccc(CC(=O)NCCS(=O)(=O)N2CCN(c3ccccc3)CC2)cc1OC	6%	.	-26%	.	-29%	0%	-6%	.
CCOc1ccc(OCC)c(NC(=O)C2CCN(S(=O)(=O)c3ccc(Br)s3)CC2)c1	.	-1.3%	.	.	-14%	1%[46.1 µM]	-3%[46.1 µM]	15%
COc1ccc(C(=O)NCC2OCCc3ccccc32)cc1 (stereo not given)	-5%	5.2%	-21%	-5%	41%[activator]	?	?	-7%
CCc1ccc(C(=O)CC2(O)C(=O)N(CCc3ccccc3)c3ccc(Br)cc32)cc1 (stereo not given)	.	-6.9%	.	.	26%	-22%[46.1 µM]	?	-9%
CCOc1ccc(-n2nc(CO)c(C(=O)NCc3ccc(Cl)cc3)n2)cc1	.	-5.1%	.	.	1%	?	0%[46.1 µM]	4%
OCc1ccccc1NC(=S)Nc1cccnc1	6%	0.6%	8%	2%	-1%	-12%	13%	0%
COc1ccc(Cl)cc1NC(=O)N1CCC2(CC1)Oc1ccccc1C(=O)N2Cc1ccc(F)cc1	.	-5.1%	.	.	-16%	2%[46.1 µM]	-6%[46.1 µM]	-4%
O=C1C2C3C=CC(C3)C2C(=O)N1c1n[nH]c(-c2cccnc2)n1 (stereo not given)	-7%	2.9%	-11%	0%	-3%	-1%	4%	-11%
COc1ccc(-c2nc3n(n2)C(=O)CC(c2ccco2)S3)cc1 (stereo not given)	-10%	-11%	5%	-4%	4%	-5%	10%	1%
CC(=O)NS(=O)(=O)c1cccnc1Nc1ccc(Cl)cc1	3%	2.1%	-1%	2%	-22%	3%	?	-6%
COc1ccc(Nc2nc3ccccc3nc2NS(=O)(=O)c2ccc(C)cc2)c(OC)c1	.	-1.8%	.	.	12%	23%[46.1 µM]	-6%[46.1 µM]	1%
COc1ccccc1NC(=O)CSc1nnnn1-c1ccc(C)cc1	7%	-6.1%	-12%	-6%	-13%	-9%	?	8%
O=C(NCc1ccc(Cl)cc1)c1ccc2c(Cl)c3c(nc2c1)CCCC3	.	1.6%	.	.	-19%	-2%[46.1 µM]	4%[46.1 µM]	17%
O=C(CSc1ncnc2scc(-c3ccccc3)c12)Nc1ccc(C(=O)O)cc1	2%	.	14%	27%	-4%	.	-5%	.

3 structures out of the list, sorted by number of heavy atoms, lowest first.
SMILES	SARS PLP yeast	Cruzain Triton	RE007 growth inh	NS1 function inh	StopGo reporter	LASV entry inh	Marburg entry inh	Cruzain noTriton
CCSc1nnc(NC(=O)Nc2cccc(C)c2)s1	-1%	.	-18%	-3%	2%	?	?	.
COc1ccc(C(=O)NCC2OCCc3ccccc32)cc1 (stereo not given)	-5%	5.2%	-21%	-5%	41%[activator]	?	?	-7%
O=C(NCc1ccc(Cl)cc1)c1ccc2c(Cl)c3c(nc2c1)CCCC3	.	1.6%	.	.	-19%	-2%[46.1 µM]	4%[46.1 µM]	17%

Single entries from the results shown.
`COc1ccc(-c2nc3n(n2)C(=O)CC(c2ccco2)S3)cc1` (stereo not given) – Marburg entry inh = 10%
`COc1ccc(Cl)cc1NC(=O)N1CCC2(CC1)Oc1ccccc1C(=O)N2Cc1ccc(F)cc1` – Marburg entry inh = -6%[46.1 µM]
`CCc1ccc(C(=O)CC2(O)C(=O)N(CCc3ccccc3)c3ccc(Br)cc32)cc1` (stereo not given) – Cruzain Triton = -6.9%
`O=C1C2C3C=CC(C3)C2C(=O)N1c1n[nH]c(-c2cccnc2)n1` (stereo not given) – StopGo reporter = -3%

(cont.)
SMILES	SARS PLP yeast	Cruzain Triton	RE007 growth inh	NS1 function inh	StopGo reporter	LASV entry inh	Marburg entry inh	Cruzain noTriton
C[C@@]1([C@@H](NC(=O)c2cccs2)c2ccc(-c3ccccc3)cc2)C[C@H]1C1CCCCC1	-10%	-1.9%	19%	1%	-11%	20%	-14%	7.9µM*
O=C(O)CCC(=O)Nc1ccc(N2CCOCC2)cc1	10%	4.7%	10%	1%	-8%	10%	9%	3%
COc1ccccc1N1C(=O)CC(=O)NC1=O	0%	.	4%	6%	-4%	.	.	.
COc1cc(/C=N/n2nnnc2N)cc(OC)c1OC	1%	.	-19%	5%	3%	.	.	.
CCN(CC(=O)NC1CCS(=O)(=O)C1)C(=O)/C=C/c1cccs1 (stereo not given)	-1%	.	6%	.	-13%	5%	10%	.
CCc1nn(CC(=O)Nc2ccc(C)c(F)c2)c(=O)c2cc3cc(C)ccc3n12	.	-2.6%	.	.	29%	5%[46.1 µM]	?	-15%
CCOC(=O)N1CCC(NC(=O)c2cnn(-c3ccc(C)cc3C)c2C2CCN(C(=O)OC(C)(C)C)CC2)CC1	.	5.5%	.	.	-16%	5%[46.1 µM]	.	-6%
O=c1ccc(Oc2nc(N3CCCCC3)nc(N3CCCCC3)n2)n[nH]1	3%	-1.3%	-5%	0%	-5%	-10%	3%	-16%
CCN(C(=O)COC(=O)/C=C/c1cccc([N+](=O)[O-])c1)c1ccccc1	0%	.	-15%	-2%	-8%	-5%	21%[46.1 µM]	.
C=CC[n+]1c(C)csc1Nc1ccc(C(=O)O)cc1	5%	.	26%	.	5%	.	4%[46.1 µM]	.
CCc1ccc(-c2cc3c(=O)n(CC(=O)N4CCCCCC4)nc(C)n3n2)cc1	1%	.	-4%	8%	-3%	22%[46.1 µM]	15%[46.1 µM]	.
Cc1cc(C=O)c(C)c2c1[nH]c1ccccc12	.	.	-13%	.	4%	?	-3%	.
Cc1ccc2c(c1)[C@@H](O)C[C@@H](C)N2N=O	29%	-2.6%	2%	3%	-3%	-3%	?	-1%
CCCN(Cc1nnc(-c2ccccc2Cl)o1)C(=O)c1cccc(S(=O)(=O)N2CCOCC2)c1	-2%	.	7%	4%	-21%	.	.	.
CC(=O)N/N=C(\C)c1cccc(C(F)(F)F)c1	0%	.	4%	3%	8%	10%	0%[46.1 µM]	.
CCC(=O)N(Cc1cc(=O)[nH]c2ccccc12)c1ccccc1C	1%	.	5%	2%	-9%	-5%	-9%	.
COc1cccc(CNS(=O)(=O)c2c(C(=O)N3CCCCC3)c(C)n(C)c2C)c1	-10%	.	9%	-7%	16%	7%[46.1 µM]	-13%[46.1 µM]	.
CCOCCOC(=O)C1=C(C)NC(=O)NC1c1cc2c(cc1Br)OCO2 (stereo not given)	-13%	.	3%	12%	-20%	.	.	.
O=c1ccc(Cl)nn1-c1ccccc1	.	.	1%	.	2%	0%	23%	.
CCOC(=O)NC1=NCC(C)(C)S1	.	.	-4%	.	8%	?	?	.
COc1cccc(COC(=O)Nc2ccccc2F)c1	-2%	.	5%	-33%	17%	?	?	.
COc1ccc(C(C)NC(=O)CC23CC4CC(CC(C4)C2)C3)cc1 (stereo not given)	-6%	.	8%	-84%	-17%	.	.	.
Cc1occc1-c1nnc(SCC(=O)c2c[nH]c3ccccc23)n1C	1%	-1.6%	20%	-2%	13%	18%	-3%[46.1 µM]	-6%
COc1cccc(NC(=O)CSc2nnc(Cc3cccs3)n2-c2ccc(C)cc2)c1	-6%	-5.3%	0%	17%	-12%	?	?	-1%
Clc1ccc(CNc2ncnc3[nH]ncc23)c(Cl)c1	.	.	1%	.	?	-12%[46.1 µM]	?	.
CCN1CCN(C(=O)C2CCCN(S(=O)(=O)c3cccc4nsnc34)C2)CC1 (stereo not given)	1%	.	12%	1%	-6%	5%[46.1 µM]	8%[46.1 µM]	.
CN(C)CCn1c(N)nc2ccccc21	-2%	.	-20%	-2%	0%	3%[46.1 µM]	?	.
Cc1c(Cc2ccccc2)c(=O)[nH]c(=O)n1C	.	.	1%	.	0%	-3%[46.1 µM]	?	.
O=C(Nc1ccc(S(=O)(=O)NC2CCCCC2)cc1)c1ccco1	0%	0.0%	-13%	4%	.	-5%	?	0%

Record cards (already shown). Order of values: SARS PLP yeast	Cruzain Triton	RE007 growth inh	NS1 function inh	StopGo reporter	LASV entry inh	Marburg entry inh	Cruzain noTriton
Profile of `Cc1occc1-c1nnc(SCC(=O)c2c[nH]c3ccccc23)n1C` : 1%	-1.6%	20%	-2%	13%	18%	-3%[46.1 µM]	-6%
Profile of `COc1ccc(-c2nc3n(n2)C(=O)CC(c2ccco2)S3)cc1` (stereo not given) : -10%	-11%	5%	-4%	4%	-5%	10%	1%
